Screening results: PubChem BioAssay, National Center for Advancing Translational Sciences (NCATS)
Cruzain inh Det = qHTS Assay for Promiscuous and Specific Inhibitors of Cruzain (with detergent) | Cruzipain (Trypanosoma cruzi), P25779 | Potency, µM, for inactives: max response, negative = inhibition, most hits filed as inhibitors | purified cruzain, Z-FR-AMC fluorescence, 0.01% Triton | hit rate 0.43% among 200,000;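 note: plate controls were neutral wells for no effect and buffer without enzyme for full effect; nearly all actives have a fitted effect of over 40% in size; top concentration of the series not given in the record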
Target sequence (P25779 123-467 limits assumed): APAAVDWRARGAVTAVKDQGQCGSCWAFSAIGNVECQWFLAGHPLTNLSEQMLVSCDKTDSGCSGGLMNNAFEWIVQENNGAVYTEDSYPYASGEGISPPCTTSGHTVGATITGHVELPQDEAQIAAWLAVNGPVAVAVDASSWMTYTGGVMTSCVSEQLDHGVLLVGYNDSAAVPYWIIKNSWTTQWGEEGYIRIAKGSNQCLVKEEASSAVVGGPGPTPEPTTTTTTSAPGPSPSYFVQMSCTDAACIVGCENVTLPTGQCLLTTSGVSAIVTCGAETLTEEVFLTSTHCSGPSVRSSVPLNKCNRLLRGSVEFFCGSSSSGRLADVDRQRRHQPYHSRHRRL
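Purified cruzain (1.5 nM final) was preincubated with compounds for 15 min at room temperature in 100 mM sodium acetate pH 5.5, 5 mM DTT, 0.01% Triton X-100. Reaction started with 2 uM Z-FR-AMC; AMC fluorescence change over 60 s gave activity.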
Cruzain inh noDet = qHTS Assay for Promiscuous and Specific Inhibitors of Cruzain (without detergent); Cruzipain (Trypanosoma cruzi), P25779; purified cruzain, Z-FR-AMC fluorescence, no detergent; Potency, µM, for inactives: max response, negative = inhibition, actives largely listed as inhibitors; hit rate 2.3% among 200,000;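 note: plate controls were enzyme without inhibitor for no effect and buffer without enzyme for full effect; nearly all actives have a fitted effect of over 40% in size; top concentration of the series not given in the record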
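Purified cruzain at 1.5 nM, pre-incubated 15 min with compound at room temperature in 100 mM sodium acetate pH 5.5, 5 mM DTT, 0.00005% Triton X-100. Reaction started with 2 uM Z-FR-AMC; AMC fluorescence increase over 60 s gives rate.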
NS1 inh = qHTS Assay for Inhibitors of Influenza NS1 Protein Function; S. cerevisiae slowed by influenza A NS1, growth recovery by OD600; Potency, µM (series often up to 46.1 µM), inactives show top-dose activity, positive = more growth; hit rate 0.4% among 270,000; active means well fitted rising curve with a large enough effect; inconclusive means small, poorly fitted or top-dose-only effect; inactive means no such curve, though single readings can be large or run the other way; note: nearly all actives have a fitted effect of over 50% in size
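S. cerevisiae expressing influenza A NS1, grown in glucose, washed, then diluted 1:100 into pH 6.0 -URA galactose medium with 23 nl compound. Growth recovery read as OD600; NS1-free strain serves as control.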
RE007 growth inh = qHTS Assay for Inhibitors of the HIV-1 protein Vpr | S. pombe RE007 Vpr strain, BacTiter-Glo ATP luminescence, 24 h; control for the full effect not named in the record | Potency, µM (doses to about 92.2 µM), for the others: top-dose activity change, negative = less growth | hit rate 0.21% among 360,000 | AID 651644, 2012; active = well fitted falling curve with a large enough effect; inconclusive = small, poorly fitted or top-dose-only effect; inactive = no such curve, though single readings can be large or run the other way;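 note: % is set by controls: 0 for no effect and ±100 for the full control effect; nearly all actives have a fitted effect of over 50% in size; the assay follows cell death caused by Vpr and the record does not say whether a fall means rescue or toxicity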
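Fission yeast strain RE007, carrying one chromosomally integrated HIV-1 vpr copy, was seeded at OD 0.01 in PMG+AL medium with 23 nL pinned compound. After 24 h at 30 °C and 99% humidity, viability was read by BacTiter-Glo luminescence.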
SARS PLpro yeast = qHTS of Yeast-based Assay for SARS-CoV PLP | Potency, µM (doses to about 32.9 µM), without a hit: top-dose activity, positive = growth rescue | hit rate 0.19% among 330,000 | S. cerevisiae expressing SARS-CoV PLpro, growth rescue; control for the full effect not named in the record | AID 485353, 2010; active means well fitted rising curve with a large enough effect; inconclusive means small, poorly fitted or top-dose-only effect; inactive means no such curve, though single readings can be large or run the other way; note: 0% is about no effect; nearly all actives have a fitted effect of over 55% in size; growth read by luminescence after 48 h
MARV entry inh = qHTS for inhibitors of binding or entry into cells for Marburg Virus | Marburg virus pseudotyped entry inhibition, cell reporter; control for the full effect not named in the record; about a third of the inactives were read at about 46 µM | Potency, µM (titrated, usually from 37.8 µM), for inactives: top-dose activity change, negative = inhibition, most hits filed as inhibitors | hit rate 1.8% among 300,000 | AID 540276, 2011; active = well fitted inhibition curve with a large enough effect; inconclusive = small, poorly fitted or top-dose-only effect, or effect the other way; inactive = flat fitted curve, though single readings scatter; tested in HEK293 cells; about a fifth of its hits are not listed in these tables; note: % is set by controls: 0 for no effect and ±100 for the full control effect; luciferase read-out
LASV entry inh = qHTS for Inhibitors of binding or entry into cells for Lassa Virus. Lassa virus pseudotype entry inhibition, cell reporter; control for the full effect not named in the record. Potency, µM (doses to about 37.9 µM), for the others: at the highest dose activity change, negative = inhibition, most hits filed as inhibitors. AID 540256, 2011. hit rate 1.2% among 300,000; active means well fitted inhibition curve with a large enough effect; inconclusive means small, poorly fitted or top-dose-only effect, or effect the other way; inactive means flat fitted curve, though single readings scatter; tested in HEK293 cells; note: % is set by controls: 0 for no effect and ±100 for the full control effect; nearly all actives have a fitted effect of over 50% in size; luciferase read-out
StopGo reporter = High Throughput Screening for Foot and Mouth Disease Virus Antivirals; hit rate 1.2% among 410,000; Potency, µM (doses to about 57.9 µM), without a hit: at the highest dose signal change, negative = less light; human cells with a luciferase reporter of 2A StopGo recoding; control for the full effect not named in the record; active = well fitted falling curve with a large enough effect; inconclusive = small, poorly fitted or top-dose-only effect; inactive = no such curve, though single readings can be large or run the other way; tested in HEK293T cells; note: % is set by controls: 0 for no effect and ±100 for the full control effect; nearly all actives have a fitted effect of over 45% in size; luciferase light after 4 h
* marks the source's active call; other numbers are inactive results; ? = inconclusive; nt = not tested or not shown; & = joins results of further samples; [ ] = remark or other dose. Unless noted, calls come from the whole dose curve; as a rule, active = well fitted curve in the direction sought with a large enough effect; inconclusive = small, poorly fitted or top-dose-only effect, or another doubt; inactive = no such curve, though single readings can be large; an effect the other way counts as inactive or inconclusive. Potency is the fitted concentration of half-maximal effect.

Every second line gives: MARV entry inh | RE007 growth inh | LASV entry inh | StopGo reporter | Cruzain inh Det | NS1 inh | Cruzain inh noDet | SARS PLpro yeast
COc1ccc(NP(=O)(Oc2ccc(Cl)cc2)Oc2ccc(Cl)cc2)cc1OC
→ ? | 1% | ? | 45%[activator] | -6.9% | 3% | 0% | 2%
COc1ccc(C(=O)N2CCN(c3c(C)cccc3C)CC2)cc1OC
→ nt | 12% | nt | -20% | -2.2% | -36% | ? | 1%
Cc1cc(NC(=O)c2ccccc2)nc2c1c(=O)oc1ccccc12
→ 19%[46.1 µM] | -12% | -15% | 2% | nt | nt | nt | -5%
CCc1nnc(NS(=O)(=O)c2ccc(NC(=O)c3ccccc3)cc2)s1
→ nt | -5% | nt | -14% | nt | 2% | nt | -3%
Cc1ccc(C(C(=O)NCc2ccc(F)cc2)N(C(=O)c2csnn2)C2CC2)o1 (configuration not stated)
→ 14% | -14% | 7% | 6% | 0.6% | 5% | -13% | -5%
COc1cc(C#N)ccc1OC(=O)C1CCN(C(=O)c2ccc(F)cc2)CC1
→ 1%[46.1 µM] | -1% | -1% | -9% | nt | nt | nt | -6%
Cc1cc(C)c2c(=O)[nH]c(=O)n(Cc3ccccc3)c2n1
→ -3% | 7% | 7% | -8% | 1.9% | 8% | -28% | 7%
Cc1ccc(O)c(-c2[nH]ncc2C(=O)c2ccc(Br)cc2)c1
→ nt | 3% | nt | -17% | nt | -3% | nt | -3%
Cc1nonc1C1CCCN1C(=O)c1cc(COc2ccc(F)cc2F)on1 (configuration not stated)
→ -15%[46.1 µM] | -16% | -18% | 31%[activator] | nt | -4% | nt | 0%
O=C(O)CSCC(=O)NCc1ccc(Cl)cc1
→ 0%[46.1 µM] | 24% | ? | -16% | nt | nt | nt | 1%
CCOc1ccc(C(O)Cc2nc3ccccc3n2C)cc1 (configuration not stated)
→ 14% | -11% | 0% | nt | 0.2% | -9% | -17% | 12%
O=C(CSc1nnc(CNC(=O)C23CC4CC(CC(C4)C2)C3)n1-c1ccc(F)cc1)Nc1ccc(F)cc1
→ ? | 25% | -18% | 0% | -3.6% | 0% | ? | -6%
CCc1nnc2c3cnn(-c4ccccc4)c3ncn12
→ 4% | -20% | ? | 35%[activator] | -2.9% | -6% | -7% | 0%
O=C(NCc1ccc(Cl)cc1)C1CCN(S(=O)(=O)c2cccnc2)CC1
→ nt | -1% | nt | 10% | nt | 7% | nt | 1%
COc1cc(=O)n(C)c2c(OCC3OC(C)(C)OC3(C)C)cccc12 (configuration not stated)
→ nt | 2% | nt | 0%&21% | -0.7% | -1% | -1% | -5%
Cc1ccc2sc(-c3ccc(NC(=O)/C=C\C(=O)O)cc3)nc2c1
→ ? | -26% | ? | 25% | nt | nt | nt | -1%
CCCCOC(=O)Nc1sc2nc(C)cc(C)c2c1-n1cccc1
→ -8% | 0% | -16% | 0% | -0.6% | 1% | -10% | 2%
CCOC(=O)N1CCN(C(=O)c2cn(C)c(=O)c3c2c2ccccc2n3C)CC1
→ ? | -10% | ? | -16% | -3.3% | -9% | 14% | 9%
COc1ccc(OC)c(CNC(=O)CCCn2c(=O)c3cccn3c3cccnc32)c1
→ 26%[46.1 µM] | nt | -7%[46.1 µM] | -10% | -1.3% | nt | 4% | nt
CC(C)CNC(=O)C(=O)NNC(=O)c1ccco1
→ -26%[46.1 µM] | -22% | 14% | -1% | nt | 2% | nt | 1%
CN1CC(=O)N(CC(=O)Nc2ccc(Cl)c(C(F)(F)F)c2)C1=O
→ ? | 2% | 1% | -14% | 5.0% | -5% | -9% | -2%
Cc1ccc(-c2nnc(Nc3ccc(C(=O)N(C)C)cc3)c3ccccc23)cc1S(=O)(=O)NC(C)(C)CO
→ 15%[46.1 µM] | 3% | 4% | 47%[activator] | nt | -13% | nt | 0%
O=C(Nc1ccc(-c2nc3cc(Cl)ccc3c(=O)o2)cc1)c1ccco1
→ 14% | -18% | -3% | -19% | ? | 8% | ? | 22%
O=C(Cc1ccccc1)Nc1scc(-c2ccccc2)c1C(=O)N1CCOCC1
→ ? | 29% | ? | 14% | 0.3% | -2% | 8% | -5%
CCCCn1c(O)c(C(CC)=NC(C)c2ccccc2)c(=O)[nH]c1=O (configuration not stated)
→ ? | 13% | ? | -27% | -2.6% | -6% | 0% | 1%
O=C(COc1ccc(Cl)cc1Cl)NN=C1c2ccccc2-c2ccccc21
→ -1% | 7% | ? | ? | -1.8% | 5% | -12% | -21%
OC(c1ccccc1)c1nc2ccccc2[nH]1 (configuration not stated)
→ 26% | -15% | 22% | -7% | nt | 14% | nt | 3%
COc1ccc(C(=O)Nc2ccc3oc(Cc4ccc(Cl)cc4)nc3c2)cc1OC
→ 0% | 3% | nt | ? | -4.2% | 18% | ? | -5%
CCCCn1nnc(NC(=O)C(c2ccccc2)c2ccccc2)n1
→ nt | -1% | nt | -2% | nt | -5% | nt | 0%
N#Cc1nc(COc2ccc(-c3ccccc3)cc2)oc1NCCCN1CCOCC1
→ ? | 2% | ? | ? | -5.9% | -83% | 11% | -5%
O=C(c1ccccc1)N1CCCC(C(=O)N2CCN(c3ccccc3)CC2)C1 (configuration not stated)
→ ? | 4% | 0% | -15% | nt | -4% | nt | 0%
COc1cccc(NC(=O)Cn2c(=O)n(-c3ccc(Cl)cc3)c(=O)c3oc4ccccc4c32)c1
→ nt | nt | -28%[46.1 µM] | 30%[activator] | -4.1% | nt | -6% | nt
CCCN(Cc1ccccc1)C(=S)Nc1ccc(OCC)cc1
→ ? | 3% | ? | 9% | nt | nt | nt | -1%
O=C(Nc1ccccc1)OCCNC1CCCCC1
→ 2% | -1% | 2%[46.1 µM] | -14% | nt | nt | nt | nt
COc1ccc(C2C(C#N)=C(N)OC3=C2C(=O)CC(C)(C)C3)c([N+](=O)[O-])c1OC (configuration not stated)
→ -26%[46.1 µM] | -13% | 7% | 12% | 1.2% | -26% | 5% | 7%
O=c1cc(CSc2nnnn2-c2ccccc2)nc2sccn12
→ 3%[46.1 µM] | 23% | nt | -1% | nt | nt | nt | 0%
O=C(COC(=O)Cc1ccc(F)cc1)Nc1cc(S(=O)(=O)N2CCOCC2)ccc1N1CCCC1
→ ? | -9% | 3% | -20% | -4.2% | -5% | 22% | -15%
c1ccc(-n2ncc3c(NCCCN4CCOCC4)ncnc32)cc1
→ ? | 7%[3.69 µM] | ? | 46%[activator] | 2.7% | 2% | -4% | 3%
CN1CCC(N(C)C(=O)c2ccc(Cl)c(S(=O)(=O)N(C)c3ccc(Cl)cc3)c2)CC1
→ ? | 9% | -16% | -6% | nt | nt | nt | -3%
CCc1ccc(NC(=O)CCCn2nc(CC)n3c(cc4occc43)c2=O)cc1
→ ? | 17% | 0%[46.1 µM] | -4% | nt | -8% | nt | -4%
Cc1onc(-c2ccccc2)c1C(=O)N1CCCN2C(=O)c3ccccc3C21 (configuration not stated)
→ -5% | -9% | 1% | -20% | nt | 0% | nt | -1%
Cc1ccc(Nc2nnc(-c3cc4c(ccc5ccccc54)oc3=O)s2)cc1
→ nt | nt | 0%[46.1 µM] | -10% | 6.7% | nt | 6% | nt
CC(=O)Nc1ccc(S(=O)(=O)N2CCN(c3cc(C)ccc3C)CC2)cc1
→ -22% | 3% | -30% | ? | -8.6% | -104% | ? | -30%
Cc1nn(-c2ccccc2)c(C)c1NC(=O)Cc1cccs1
→ 28% | 8% | 11% | -4% | -3.4% | ? | 5% | -6%
O=C(Nc1ccc(N2CCOCC2)c(Cl)c1)c1ccco1
→ ? | -9% | ? | -33% | 0.2% | -35% | 0% | -14%
O=C(CSCC(=O)Nc1cccc2ccccc12)Nc1cccc2ccccc12
→ nt | 7% | nt | -7% | nt | 12% | nt | 0%
CC(=O)N1CC2(C)CN(C(C)=O)CC(C)(C1)C2
→ 10% | -12% | 8% | -2% | -2.3% | -21% | 0% | 4%
CCc1ccc(NC(=O)CSc2nc(N)c(NC(=O)c3ccc(F)c(F)c3)c(=O)[nH]2)cc1
→ 3% | -4% | 6% | -4% | nt | 4% | nt | 11%
CCc1c(C)nc2cc(-c3ccc(OC)c(OC)c3)nn2c1N1CCCC1
→ ? | -15% | ? | nt | -2.5% | -66% | ? | -29%
OC(C#Cc1ccccc1)(c1ccccc1)c1ccccc1
→ ? | 4% | -16%[46.1 µM] | -21% | nt | nt | nt | nt
O=C(CCn1c(=O)c2ccccc2n(Cc2cc(=O)n3ccccc3n2)c1=O)NCc1ccco1
→ 18%&27% | 5% | 18%&3% | 22% | -4.0% | ? | -23% | 6%
COc1ccc(S(=O)(=O)N(C)CC(=O)NCCN2CCOCC2)cc1C
→ 1%[46.1 µM] | 4% | nt | 7% | nt | -3% | nt | -1%
O=C(CN1CCCCCC1)Nc1ccc(S(=O)(=O)N2CCCCC2)cc1
→ ? | 0% | 17%[46.1 µM] | -7% | nt | -8% | nt | 1%
CNC(=O)c1c(NC(=O)Cc2coc3ccc(OC)cc23)sc2c1CCCC2
→ ? | nt | ? | -2% | -5.6% | nt | ? | nt
Cc1cc(C)cc(-n2c(SCC(=O)N3CCOCC3)nc3c([nH]c4ccccc43)c2=O)c1
→ nt | nt | ? | ? | 1.9% | nt | -6% | nt
Cc1nn(C(C)C(=O)NCc2ccco2)c(=O)c2nn(-c3ccccc3)c(C)c12 (configuration not stated)
→ nt | -8% | 15%[46.1 µM] | -10%&-2% | -1.0% | -18% | 13% | 1%
CC(=O)Nc1ccc(S(=O)(=O)n2cnc3cc(C)c(C)cc32)cc1
→ ? | 4% | -16% | ? | -3.0% | -40% | 6% | 2%

Rows are unselected, and some 4.7% of all compounds hit somewhere here.
